HNF4A DNA FP: change in binding of human HNF4 alpha to DNA | P41235 | HNF4a-FITC DNA binding, fluorescence polarization, 1 h | activity change, % at 10 µM | hit rate 0.3% among 360,000; in the data active = activity change above about 30%, passing the limit was not always enough;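 also: controls were the assay level and a saturating level of protein; the project sought stronger binding though the title names inhibitors; some compounds called inactive have numbers as strong as hits; positive values seem to mean higher polarization but the record does not say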
Target sequence (P41235 whole entry, looked up): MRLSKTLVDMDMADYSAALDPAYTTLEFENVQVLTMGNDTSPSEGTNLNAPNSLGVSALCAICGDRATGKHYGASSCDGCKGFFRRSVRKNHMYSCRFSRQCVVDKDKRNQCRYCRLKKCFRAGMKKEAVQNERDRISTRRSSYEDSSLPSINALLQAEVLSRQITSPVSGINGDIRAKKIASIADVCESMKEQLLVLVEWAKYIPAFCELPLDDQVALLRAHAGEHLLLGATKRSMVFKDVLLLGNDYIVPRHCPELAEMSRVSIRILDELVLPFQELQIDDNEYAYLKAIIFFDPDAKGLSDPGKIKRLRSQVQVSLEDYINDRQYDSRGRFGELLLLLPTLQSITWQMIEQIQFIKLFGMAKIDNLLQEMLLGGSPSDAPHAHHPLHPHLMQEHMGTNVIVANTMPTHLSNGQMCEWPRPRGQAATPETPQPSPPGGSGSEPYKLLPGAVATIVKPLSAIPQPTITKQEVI
UCH37 inh: human UCH37 deubiquitinating enzyme inhibition; Q9Y5K5; hit rate 0.33% among 330,000; purified proteasome/UCH37, Ub-AMC cleavage fluorescence; inhibition, % (test concentration not listed);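 active = mean of two replicates above 20%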;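 also: 0% = compound-free wells with enzyme and 100% = wells lacking proteasome; stock transfer was 100 nL into about 20 µL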
Target sequence (Q9Y5K5 whole entry, looked up): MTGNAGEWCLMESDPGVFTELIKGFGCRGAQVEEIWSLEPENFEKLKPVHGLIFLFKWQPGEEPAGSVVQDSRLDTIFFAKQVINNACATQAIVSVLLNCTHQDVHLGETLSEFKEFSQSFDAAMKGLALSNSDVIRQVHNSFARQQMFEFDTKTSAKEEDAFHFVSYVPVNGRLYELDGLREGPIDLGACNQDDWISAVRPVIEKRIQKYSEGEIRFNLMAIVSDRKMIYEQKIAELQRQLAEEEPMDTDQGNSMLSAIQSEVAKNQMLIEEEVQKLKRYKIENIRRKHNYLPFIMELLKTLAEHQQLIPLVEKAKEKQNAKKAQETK
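Material: human UCH37 enzyme supplied as purified proteasome complex. Measure: % inhibition of Ub-AMC cleavage fluorescence. Medium: pH 7.4 Tris-HCl (50 mM) with ovalbumin, ATP-MgCl2, DTT. Times: 30 min preincubation with enzyme, 25 min cleavage at room temperature. Detection: AMC fluorescence intensity at 355/460 nm.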
FGF22 binding: binders of recombinant human FGF22 by thermal shift; Q9HCT0; SYPRO orange fluorescence; percent of sucrose octasulfate shift, DMSO zero; calls only at 9.99 µM; hit rate 1.5% among 340,000; AID 651658;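 active = melting point raised past a set limit in the mean and every replicate; three in four hits are not shown here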
Target sequence (Q9HCT0 whole entry, looked up): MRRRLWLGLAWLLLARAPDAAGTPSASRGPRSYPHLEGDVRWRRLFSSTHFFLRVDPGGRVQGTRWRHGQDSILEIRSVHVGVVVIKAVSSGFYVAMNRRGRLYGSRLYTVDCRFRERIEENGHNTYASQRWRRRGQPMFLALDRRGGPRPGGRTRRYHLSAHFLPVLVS
ALR inh: inhibitors of human sulfhydryl oxidase ALR; P55789; purified ALR, DTT oxidation, H2O2 HRP-luminol luminescence; inhibition, % (no concentration beside the values); hit rate 3.8% among 290,000;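 active = mean and each replicate at 75% or more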;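 also: stock transfer was 7.5 nL into about 7.5 µL; 0% = neutral wells and 100% = wells with inactivated enzyme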
B2AR ag: activates human beta-2 adrenergic receptor causing internalization; P07550; Am2.2-beta2AR cells, FAP receptor internalization, flow cytometry; reference of the scale not given here; response, % (no concentration beside the values); hit rate 0.43% among 340,000;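 active = response above a set limit, near 3 SD of response in nonfluorescent compounds, cut at about 42% in these data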;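 also: stock transfer was 100 nL into about 11 µL; a reference agonist was the positive control; negative values mostly stem from fluorescent compounds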
Ecoli growth: inhibitors of Escherichia coli growth | hit rate 0.21% among 330,000 | OD600, 23 h; stronger effect = lower value | OD600 absorbance (no concentration beside the values);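 active = OD600 absorbance below the run mean of sample wells minus 3.6 SD, in any replicate, cut at about 0.56 in these data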;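 also: stock transfer was 300 nL into about 60 µL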
rRNA inh HTS: inhibitors of bacterial rRNA selective over humanized ribosomes | AID 720706 | E. coli WT GFP vs humanized-ribosome RFP mutants, fluorescence, 24 h; stronger effect = lower value; DMSO median 0, no signal -100 | GFP signal change (wild-type ribosome), % (no concentration beside the values) | hit rate 1.6% among 350,000;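 active = significant combined selectivity score with lowered wild-type GFP, culture density cut under 30%, mutant RFP and density less affected; inactive = any of these conditions unmet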; also: one replicate is shown; some compounds called inactive have numbers as strong as hits
rRNA inh HTS OD600: also measured in rRNA inh HTS; calls as there; OD600 change, %; measured here: OD600 growth;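 optical density of the mix in the first replicate; 0 = DMSO median and -100 = no signal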
rRNA inh HTS RFP: further read-out of rRNA inh HTS, marked with its call; RFP signal change, %; measured here: RFP humanized mutant strains;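 first replicate; 0 = DMSO median and -100 = no signal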
Active calls of the source: *; i = inactive; nt = not tested or not shown. The list is partial (hit frequency here may not be typical).

1: CCOC(=O)c1c(NC(=O)C2CC(Cl)=CCC2C(=O)O)sc2c1CC(C)(C)OC2 (stereo unspecified)
2: C/C(=N\Nc1ncc(Cl)cc1Cl)c1ccc(OC(F)F)cc1
3: COc1cccc(NC(=O)COC(=O)CC2CC3CCC2C3)c1 (stereo unspecified)
4: CCOc1cc(N2CCOCC2)c(OCC)cc1NC(=O)Cc1cccc(OC)c1
5: O=C(O)CCSSCCC(=O)O
6: Cc1ccc2nc(Cc3ccc(N)cc3)[nH]c2c1
7: O=C(NCCc1cn[nH]c1)c1ccc2oc(CCc3ccccc3)nc2c1
8: Cc1ccc(S(=O)(=O)N(C)CCCC(=O)N2CCCCC2)cc1
9: Cc1ccc(C(=O)CSc2nnc(CNc3nc(-c4ccccc4)cs3)n2C)cc1
10: O=[N+]([O-])c1cccc(S(=O)(=O)Nc2cccc(-c3ccc(N4CCOCC4)nn3)c2)c1

Compound	1	2	3	4	5	6	7	8	9	10
HNF4A DNA FP	0.3	-0.3	-3.2	-3.2	-0.4	1.3	3.6	4.5	114.5*	4.2
UCH37 inh	-2.8	nt	2.2	-0.1	0.9	2.5	nt	4.1	7.9	4.3
FGF22 binding	i	nt	i	nt	i	nt	i	i	nt	i
ALR inh	-1.0	5.6	30.2	-4.6	-0.9	nt	nt	0.8	2.4	28.2
B2AR ag	-1.8	-16.1	7.8	-1.3	0.4	2.0	nt	-4.4	-4.2	-0.5
Ecoli growth	0.657	nt	0.676	0.708	0.658	0.716	nt	0.677	0.708	0.677
rRNA inh HTS	-8.5	nt	-14.7	nt	4.5	nt	-4.0	-8.2	nt	3.6
rRNA inh HTS OD600	-3.5	nt	-20.2	nt	-1.1	nt	2.8	-10.4	nt	-3.2
rRNA inh HTS RFP	0.2	nt	-3.7	nt	-1.2	nt	-2.3	-6.7	nt	0.8

Some entries already given, reduced to rRNA inh HTS RFP, FGF22 binding and ALR inh.
item | structure | rRNA inh HTS RFP | FGF22 binding | ALR inh
3 | COc1cccc(NC(=O)COC(=O)CC2CC3CCC2C3)c1 (stereo unspecified) | -3.7 | i | 30.2
4 | CCOc1cc(N2CCOCC2)c(OCC)cc1NC(=O)Cc1cccc(OC)c1 | nt | nt | -4.6

Remaining list, next part
11: OC(CCN1CCOCC1)c1ccccc1 (stereo unspecified)
12: CCCn1c(N)c(C(=S)NC(=O)C2CC2)c(=O)n(C)c1=O
13: O=C(Cc1ccc(Cl)cc1)NCC(=O)N1CCCC1
14: COc1ccc(OCCSc2nnc(CCNC(=O)c3ccc(OC)cc3)n2C)cc1
15: O=c1[nH]cc(NCCc2ccccc2)c(=O)[nH]1
16: CCOC(=O)Cc1c(C)nc2c(-c3ccccc3)c(C)[nH]n2c1=O
17: Cc1cccc(N(CC(O)CN2CCOCC2)S(=O)(=O)c2ccccc2)c1 (stereo unspecified)
18: O=C(CSc1cc(Cl)ccc1Cl)Nc1ccc(N2CCOCC2)cc1
19: CC(C)C(NC(=O)c1ccccc1)C(=O)NCCc1ccccc1 (stereo unspecified)
20: O=C(CSCc1c(Cl)cccc1Cl)NN1C(=O)c2ccccc2C1=O

Compound	11	12	13	14	15	16	17	18	19	20
HNF4A DNA FP	0.3	1.0	-0.3	-0.7	0.0	-1.0	1.4	3.3	-2.1	2.9
UCH37 inh	nt	4.5	-2.3	2.0	nt	-3.6	-0.7	0.5	3.9	4.0
FGF22 binding	i	nt	nt	nt	i	nt	i	i	i	nt
ALR inh	2.5	nt	-3.4	-1.2	-1.1	nt	-1.7	20.1	nt	-2.7
B2AR ag	1.6	-7.8	10.6	-0.1	3.5	1.3	-2.0	2.8	-1.1	3.1
Ecoli growth	nt	0.699	0.733	0.592	nt	0.663	0.633	0.641	0.7	0.702
rRNA inh HTS	9.1	nt	nt	nt	22.6	nt	6.8	0.6	14.1	nt
rRNA inh HTS OD600	10.4	nt	nt	nt	11.4	nt	12.4	-28.8	13.8	nt
rRNA inh HTS RFP	0.4	nt	nt	nt	6.3	nt	-0.5	-5.2	3.0	nt

A different layout for part of the listing above:
item	molecule	HNF4A DNA FP	UCH37 inh	FGF22 binding	ALR inh	B2AR ag	Ecoli growth	rRNA inh HTS	rRNA inh HTS OD600	rRNA inh HTS RFP
19	CC(C)C(NC(=O)c1ccccc1)C(=O)NCCc1ccccc1 (stereo unspecified)	-2.1	3.9	i	nt	-1.1	0.7	14.1	13.8	3.0
20	O=C(CSCc1c(Cl)cccc1Cl)NN1C(=O)c2ccccc2C1=O	2.9	4.0	nt	-2.7	3.1	0.702	nt	nt	nt

Next section:
21: O=C(O)c1nnn(-c2cc(C(F)(F)F)cc(C(F)(F)F)c2)c1-c1ccccc1
22: COc1cc(NC(=O)CSCc2cnn(-c3ccccc3)c2-n2cccc2)cc(OC)c1
23: COc1ccc(CNC(=O)C2CCN(c3cc(C(=O)Nc4cccc(OC)c4)ccn3)CC2)cc1
24: CC(OC(=O)C1=COCCO1)C(=O)NC(C)c1ccc(Cl)cc1Cl (stereo unspecified)
25: NC(=O)c1ccc(-n2nnnc2SCc2ccccc2)cc1
26: CCSCC1COC(c2cccn2Cc2ccc(C)cc2)=N1 (stereo unspecified)
27: Cc1cccc(C(=O)NCC(=O)N2CCN(S(=O)(=O)c3ccccc3)CC2)c1
28: C#CCN(C[C@@H]1[C@@H](OC(=O)NCc2ccc(OC)c(OC)c2)[C@@H](OC(=O)NCc2ccc(OC)c(OC)c2)Cn2c(=O)n(CCCCCC)c(=O)n21)S(=O)(=O)c1ccc(C)cc1
29: CCOCc1nnc(NC(=O)CCc2ccccc2)s1
30: Cc1ccc2c(c1)C(c1ccccc1)N(C(=O)c1ccc(Br)o1)CC(=O)N2 (stereo unspecified)

Compound	21	22	23	24	25	26	27	28	29	30
HNF4A DNA FP	-4.7	0.9	-0.8	-0.9	0.1	0.1	-3.4	2.5	-0.2	0.5
UCH37 inh	4.0	-1.3	-29.7	1.4	1.5	5.2	2.5	nt	1.2	4.7
FGF22 binding	i	nt	i	i	nt	nt	i	i	nt	i
ALR inh	-2.3	nt	-5.6	nt	-4.0	-136.4	-0.5	nt	-8.3	-4.1
B2AR ag	-10.8	9.3	12.9	-6.5	-2.7	-1.0	-4.9	nt	1.1	21.9
Ecoli growth	0.706	0.688	0.674	0.637	0.728	0.71	0.643	nt	0.661	0.747
rRNA inh HTS	4.9	nt	-5.0	9.2	nt	nt	6.4	17.2	nt	-5.7
rRNA inh HTS OD600	-3.4	nt	-0.5	10.8	nt	nt	8.7	4.9	nt	-39.7
rRNA inh HTS RFP	1.9	nt	5.6	-0.7	nt	nt	0.5	1.3	nt	-6.6

31: Cc1cc(C)n(-c2ccc(C(=O)Nc3cccnc3)cc2)n1
32: CC1=CCC(C(=O)O)(C(=O)N/N=C/c2cccnc2)C(c2ccccc2)C1 (stereo unspecified)
33: CCOC(=O)Cn1c(=O)c2c(nc3n2CCN3Cc2ccccc2)n(C)c1=O
34: Cc1ccc(S(=O)(=O)N2CCN(CC(=O)Nc3ccc([N+](=O)[O-])cc3)CC2)cc1C
35: COc1cc(/C=N/NC(=O)c2ccc(CN(C)S(=O)(=O)c3ccc(C)cc3)cc2)ccc1O
36: CCC(Cc1ccccc1)NS(=O)(=O)c1c(C)nc2scc(C)n2c1=O (stereo unspecified)
37: CNC(=O)c1ccc(NC(=O)c2ccc3c(=O)n4c(nc3c2)CCC4)cc1
38: COC(C/C=C\[C@@H](O)[C@@H](C)OCc1ccccc1)OC
39: CC(=O)Nc1ccc(NC(=O)C2(C)Cc3c(-c4cccc(C(F)(F)F)c4)ccnc3O2)cc1 (stereo unspecified)
40: COCCN1C(=O)c2ccc(C(=O)NCc3ccco3)cc2C1=O

Compound	31	32	33	34	35	36	37	38	39	40
HNF4A DNA FP	3.2	2.1	8.1	0.7	0.2	-2.1	0.7	-3.5	-6.8	3.2
UCH37 inh	6.0	nt	0.0	3.2	nt	-43.6	1.5	-0.2	nt	-0.6
FGF22 binding	i	nt	nt	nt	nt	i	i	i	i	i
ALR inh	-7.5	-12.2	-5.0	-4.6	16.4	0.7	0.3	14.0	nt	6.0
B2AR ag	-8.2	-5.1	8.2	-8.9	9.6	0.0	-4.9	-1.4	nt	-5.9
Ecoli growth	0.694	nt	0.768	0.66	nt	0.713	0.7	nt	nt	0.683
rRNA inh HTS	2.7	-25.4	nt	nt	0.8	1.4	-1.5	9.2	-25.2	9.8
rRNA inh HTS OD600	-13.8	-20.7	nt	nt	4.5	6.3	2.9	13.4	-42.6	9.9
rRNA inh HTS RFP	-4.2	-1.3	nt	nt	-0.4	-2.4	0.1	-2.8	-7.4	0.0

41: Cc1ccc(NC(=O)C2=COCCO2)cc1S(=O)(=O)N1CCOCC1
42: Cc1cccc(-n2ncc3c2CCCC3NC(=O)c2ccncc2)c1C (stereo unspecified)
43: CCn1c(SCC(=O)N2CCN(c3ccccc3)CC2)nc2c([nH]c3ccccc32)c1=O
44: COc1ccc(C(C2C(=O)CC(C)(C)CC2=O)C2C(=O)CC(C)(C)CC2=O)cc1
45: O=C(CN1CC[n+]2c(-c3ccccc3)csc21)c1ccc(Br)cc1
46: N#Cc1cccc(NC(=O)CSc2nnc(C3CC3)n2C2CC2)c1
47: CC(NS(=O)(=O)c1ccc(Cl)cc1)C(=O)OCC(=O)c1ccc[nH]1 (stereo unspecified)
48: COc1cccc2cc(C(=O)C3=C(O)C(=O)N(CCN4CCOCC4)C3c3ccc(Cl)cc3)oc12 (stereo unspecified)
49: Nc1[nH]c(C(=O)c2ccccc2)c(-c2ccncc2)c1C(=O)NCc1ccc(Cl)cc1
50: O=C(/C=C/c1ccc([N+](=O)[O-])cc1)NCc1ccco1
51: O=C(C[n+]1cc(-c2ccc(F)cc2)n2c1CCC2)c1cccs1
52: O=C(COc1ccccc1[N+](=O)[O-])N/N=C/C=C/c1ccco1

Compound	41	42	43	44	45	46	47	48	49	50	51	52
HNF4A DNA FP	-1.8	-1.7	0.5	-4.1	-4.3	0.8	1.8	-4.2	-3.7	-0.6	3.3	3.5
UCH37 inh	4.0	nt	-3.9	2.7	2.0	0.4	3.9	9.5	nt	4.7	3.1	nt
FGF22 binding	i	i	i	i	i	i	i	i	i	i	i	nt
ALR inh	1.0	nt	-1.3	96.8*	98.4*	-3.6	-1.5	3.3	nt	nt	4.8	4.0
B2AR ag	-5.9	nt	7.3	-5.9	18.3	-9.5	-0.5	19.6	nt	5.3	-13.9	-0.7
Ecoli growth	0.651	nt	0.731	0.657	0.667	0.69	0.695	0.667	nt	0.694	0.669	nt
rRNA inh HTS	6.4	3.3	6.1	12.4	-35.0	nt	1.0	-2.1	-2.7	-8.7	-16.4*	nt
rRNA inh HTS OD600	18.0	1.6	12.4	0.4	5.6	nt	2.0	3.5	10.3	-1.2	3.0*	nt
rRNA inh HTS RFP	0.4	-1.8	-1.5	-0.1	19.6	nt	-1.4	3.5	8.9	1.1	7.1*	nt
